Assay outcomes deposited in PubChem BioAssay by National Center for Advancing Translational Sciences (NCATS).
ClpP mod: qHTS Assay for Activators of ClpP. Potency, µM (highest dose often 57.5 µM), for inactives: top-dose activity change, negative = active. hit rate 1.9% among 340,000. purified B. subtilis ClpP, FRET peptide cleavage, 20 min; active = well fitted falling curve with a large enough effect; inconclusive = small, poorly fitted or top-dose-only effect; inactive = no such curve, though single readings can be large or run the other way; note: potency is the fitted concentration of half-maximal effect; the source files actives as falling curves though it sought activators and does not explain the sign; nearly all actives have a fitted effect of over 65% in size; many hits overshoot -100%
Target sequence (P80244 whole entry, looked up): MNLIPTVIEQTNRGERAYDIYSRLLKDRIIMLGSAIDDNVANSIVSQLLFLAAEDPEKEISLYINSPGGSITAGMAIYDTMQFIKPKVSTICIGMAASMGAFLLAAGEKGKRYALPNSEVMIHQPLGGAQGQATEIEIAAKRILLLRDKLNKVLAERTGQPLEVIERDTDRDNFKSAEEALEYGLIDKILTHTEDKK
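FRET quenching reversal measured ClpP activation: 10 microg/mL B. subtilis ClpP at pH 8 with the FRET-FV decapeptide, read at 430 nm after 320 nm excitation. The 20-min minus 0-min signal was scaled between DMSO/no-enzyme wells and ADEP (5.8 microM final).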
CtBP-E1A blk: qHTS Assay for Inhibitors of the CtBP/E1A Interaction. CtBP / adenovirus E1A interaction (AlphaScreen). AlphaScreen GST-E1A/His-CtBP binding, 1536-well; hits give low values; control for the full effect not named in the record. activity change, % (test concentration not listed). hit rate 0.49% among 340,000; in the data active means activity change below about -65%; inconclusive means about -30% to -65%; inactive means above about -30%; note: % is set by controls: 0 for no effect and ±100 for the full control effect; compound concentration not given in the record
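Homogeneous bead-based format: GST-tagged E1A captured on glutathione donor beads, His-tagged CtBP on nickel acceptor beads; compounds precede bead addition by 2 h at 37 °C.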
Menin-MLL FL inh: qHTS Assay for Inhibitors Targeting the Menin-MLL Interaction in MLL Related Leukemias: Competition With Fluorescein Labeled MLL-derived Peptide; Fluorescence polarization, fluorescein-MLL peptide displacement from menin; FP activity change, % at 61.4 µM; 290,000 tested, under 10 active; inconclusive = falling polarisation curve, or a change in total fluorescence; inactive = total fluorescence flat and polarisation flat or rising; no compound was filed as active; the % refers to the polarisation; negative = inhibition;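 note: % of control where 0% means no effect; inhibitors lower the polarisation; unlabelled MLL peptide was the positive control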
TRPV1 PAM: HTS Assay for Compounds that Act as Potentiators of the Vanilloid Receptor 1. Transient receptor potential cation channel subfamily V member 1 (Homo sapiens), Q8NER1. TRPV1-expressing cells, Fluo-8 calcium influx, capsaicin EC20 potentiation; host cell line not named in the record; control for the full effect not named in the record. potentiation, % at 8.33 µM. hit rate 0.02% among 320,000. AID 540277, 2011; active means potentiation above 80%; inconclusive means 30% to 80%; inactive means below 30%; note: 0% is about no effect
Target sequence (Q8NER1 whole entry, looked up): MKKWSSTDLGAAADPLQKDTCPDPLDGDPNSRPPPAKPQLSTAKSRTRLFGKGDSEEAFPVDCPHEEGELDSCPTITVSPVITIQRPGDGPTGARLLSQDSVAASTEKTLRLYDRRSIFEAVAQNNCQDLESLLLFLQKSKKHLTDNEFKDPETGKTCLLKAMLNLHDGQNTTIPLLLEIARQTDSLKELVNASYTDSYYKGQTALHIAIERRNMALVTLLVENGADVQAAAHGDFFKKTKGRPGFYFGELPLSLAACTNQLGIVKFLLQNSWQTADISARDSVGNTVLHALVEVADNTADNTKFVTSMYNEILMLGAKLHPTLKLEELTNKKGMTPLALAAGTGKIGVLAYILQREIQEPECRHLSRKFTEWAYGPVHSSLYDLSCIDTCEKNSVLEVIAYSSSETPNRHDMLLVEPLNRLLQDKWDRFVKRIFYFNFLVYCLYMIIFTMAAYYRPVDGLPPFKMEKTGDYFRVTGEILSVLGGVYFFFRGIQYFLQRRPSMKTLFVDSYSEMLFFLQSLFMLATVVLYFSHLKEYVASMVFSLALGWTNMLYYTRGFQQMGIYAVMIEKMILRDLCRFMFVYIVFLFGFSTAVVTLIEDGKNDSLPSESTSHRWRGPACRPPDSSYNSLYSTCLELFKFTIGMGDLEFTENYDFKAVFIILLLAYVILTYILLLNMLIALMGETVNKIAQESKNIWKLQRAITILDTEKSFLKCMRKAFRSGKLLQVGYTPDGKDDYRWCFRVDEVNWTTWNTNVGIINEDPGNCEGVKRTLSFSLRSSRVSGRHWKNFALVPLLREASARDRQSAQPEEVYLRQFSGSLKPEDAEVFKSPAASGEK
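Fluo-8 calcium influx in TRPV1-expressing cells, kinetic read (ex 480/em 520 nm). Compound added and read 3 min for agonist activity, followed by capsaicin at EC20 final and 2 min further read for enhancement.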
gsp antag: qHTS for Antagonists of gsp, the Etiologic Mutation Responsible for Fibrous Dysplasia/McCune-Albright Syndrome: qHTS. gsp-mutant cells, cAMP HTRF, 30 min; control for the full effect not named in the record. Potency, µM (titrated, usually from 76.9 µM), inactives show top-dose activity change, negative = inhibition, hits mostly inhibitors. hit rate 0.4% among 340,000. AID 624288, 2012; active = falling curve of any shape with a large fitted effect; inconclusive = falling curve, mostly with a smaller effect; inactive = flat or rising curve; cell line not stated here;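 note: intracellular cAMP measured with PDE inhibitor Ro 20-1724 present during compound exposure; potency is the fitted concentration of half-maximal effect; % is set by controls: 0 for no effect and ±100 for the full control effect; nearly all actives have a fitted effect of over 65% in size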
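G418-selected cells were plated in DMEM/10% FBS for 16-24 h at 37C, then treated with compounds plus the PDE inhibitor […] (300 uM solution added) for 30 min at 37C. Intracellular cAMP was measured by HTRF after 30 min lysis at room temperature.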
gsp agonist: qHTS for Agonist of gsp, the Etiologic Mutation Responsible for Fibrous Dysplasia/McCune-Albright Syndrome: qHTS; Potency, µM (top dose mostly 76.9 µM), for inactives: at the highest dose activation (cAMP increase), usual class: activators; AID 624287, 2012; gsp mutant cells, cAMP HTRF, 30 min; control for the full effect not named in the record; hit rate 0.13% among 340,000; active = well fitted activation curve with a large enough effect; inconclusive = small, poorly fitted or top-dose-only effect, or another doubt; inactive = no such curve, though single readings can be large or run the other way; cell line not stated here;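 note: phosphodiesterase inhibitor Ro 20-1724 added with compounds to block cAMP breakdown; potency is the fitted concentration of half-maximal effect; nearly all actives have a fitted effect of over 60% in size; about a fifth of the inactives were tested at one dose only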
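Cells in DMEM/10% FBS with G418 were pretreated with compounds in DMSO plus […] (300 uM stock) for 30 min at 37C. cAMP was measured by HTRF (cAMP-d2 plus anti-cAMP antibody-K) after 30 min at room temperature.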
Sfp PPTase inh: qHTS Assay for Inhibitors of Bacillus subtilis Sfp phosphopantetheinyl transferase (PPTase); 4'-phosphopantetheinyl transferase ffp (Bacillus subtilis), Q9F4F7; Biochemical Sfp PPTase activity, qHTS; Potency, µM, inactives show max response, negative = inhibition, usual class: inhibitors; hit rate 3.5% among 310,000; AID 1490, 2009; active = well fitted inhibition curve with a large enough effect; inconclusive = small, poorly fitted or top-dose-only effect, or another doubt; inactive = no such curve, though single readings can be large or run the other way;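 note: the enzyme is Sfp with the accession as filed and its product quenches rhodamine fluorescence; potency is the fitted concentration of half-maximal effect; 0% = enzyme reaction without inhibitor and -100% = no enzyme wells; top concentration of the series not given in the record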
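Fluorescence-quenching assay with 15 nM Sfp, 5 uM rhodamine-CoA and 12.5 uM BHQ-2-labelled ybbR peptide in pH 7.6 Hepes/MgCl2 buffer. Enzyme was pre-incubated with compound for 15 min at room temperature. Rate was taken from the 30-min fluorescence change (525/598 nm).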
Numbers without * were called inactive; ? = inconclusive; / = not tested or not shown; [ ] = dose if it differs, or a comment.

SMILES	ClpP mod	CtBP-E1A blk	Menin-MLL FL inh	TRPV1 PAM	gsp antag	gsp agonist	Sfp PPTase inh
CCCCOc1ccc(S(N)(=O)=O)cc1	-4.4%	-2	0.6	4	-1%	11%	11%
CC(C)C(=O)Nc1ccc(NC(=O)CCc2ccccc2)cn1	/	0	-0.8	0	5%	5%[15.4 µM]	10%
CC1CC(C)CN(CCCNC(=O)CCNC(=O)Cn2cnc3ccccc3c2=O)C1 (stereo not drawn)	/	4	1.0	2	5%	10%[15.4 µM]	-5%
CCn1c(N2CCN(S(=O)(=O)c3ccc(OC)cc3)CC2)nc2ccccc21	/	-21	2.0	6	?	-46%[inhibitor]	-11%
COc1ccccc1CC(=O)Nc1cccc(C)n1	-1.9%	5	-0.1	-4	?	18%	3%
O=C1NCCCN1Cc1ccc(Cl)cc1	-9.1%	-5	4.4	11	-6%	10%[15.4 µM]	-9%
Cn1c(CCNC(=O)c2ccccc2F)nnc1SCc1nc2ccccc2c(=O)[nH]1	-1.0%	-2	5.6	-39	6%	16%	5%
Cc1ccc(C2/C(=C(/O)c3cnn(-c4ccccc4)c3C)C(=O)C(=O)N2CCCN2CCOCC2)o1 (stereo not drawn)	/	/	-1.6	-2	/	/	-17%
CCCCn1nnc(NC(=O)Cc2ccc(Cl)cc2)n1	1.8%	8	2.5	11	21%	-7%	0%
COc1ccc2cc(CN(C(=O)Nc3ccccc3OC)C3CCCC3)c(=O)[nH]c2c1	-14%	-1	-0.3	?	-6%	21%	-4%
Cc1ccccc1C(=O)Nc1ccc2c(c1)OCCO2	-2.4%	/	0.9	7	7%	-24%	-1%
CCCCN1C(=O)C(CC(=O)NCCN2CCOCC2)CC(C(=O)N(C)C)=C1C (stereo not drawn)	-3.3%	0	/	/	/	3%	/
Cc1cc(C)n(C2CC(=O)N(c3ccc(C)c(Cl)c3)C2=O)n1 (stereo not drawn)	-0.2%	7	-2.6	9	5%	11%	7%
CC(=O)Nc1nc(N2C(=O)c3ccccc3C2=O)n(-c2ccccc2)n1	-7.1%	?	-2.0	-8	7%	8%	8.9µM*
Cc1ccc([N+](=O)[O-])cc1/C=N/Nc1nnnn1-c1ccccc1	0.7%	3	3.8	5	3%	0%	11%
CC(C)NC(=O)COC(=O)/C=C/c1ccc(F)cc1	0.4%	3	7.0	12	6%	-53%	0%
Cc1ccc(C(=O)NCCC(=O)Nc2ccccc2C)cc1	-0.6%	11	-0.4	-3	-8%	-2%[15.4 µM]	1%
N#CCC(=O)N/N=C\c1cccc(OC/C=C/c2ccccc2)c1	0.5%	-14	/	29	-12%	5%	-5%
Cc1ccc(NC(=O)c2cc(-c3ccc(C)c(C)c3O)n[nH]2)cc1C	-0.5%	-16	7.8	8	7%	-4%[15.4 µM]	2%
CC1=CC(C)(C)Nc2ccc(OC(=O)CN3C(=O)CCC3=O)cc21	?	10	2.9	-2	-7%	13%	-6%
O=C(Nc1ccc(NC(=O)c2cccs2)cc1)c1ccc2c(c1)OCCO2	-18%	/	1.0	7	-2%	-28%	1%
O=C(NCC1CCCO1)c1ccc(Br)o1 (stereo not drawn)	/	5	0.5	-1	10%	0%[15.4 µM]	15%
O=C(c1ccco1)N1CCN(Cc2cc(=O)c(OCc3cccc(F)c3)co2)CC1	/	8	/	24	-1%	-10%[15.4 µM]	/
CCCC[C@@H]1CNCCN1CCCc1cc(OC)c(OC)c(OC)c1	2.6%	4	/	3	4%	16%	/
COc1ccccc1NC(=O)Oc1ccc(C(C)=O)cc1	0.1%	-3	4.9	3	13%	18%	-4%
CC(=O)NC1CC2CCCC(C1)N2C(=O)Nc1cccc(C(C)=O)c1 (stereo not drawn)	-2.4%	/	/	/	8%	11%	/
O=C(CSc1nc2ccccc2o1)Nc1nc2c(s1)CCCC2	-17%	/	/	/	-12%	-1%	/
COCCn1c(-c2ccc(C)cc2)nc2c(c(=O)c3ccccc3n2C)c1=O	0.5%	/	/	/	-1%	16%	/
Cc1nn(C)cc1CNC(=O)C1C2CCC(C2)C1C(=O)O (stereo not drawn)	/	/	0.0	3	/	/	11%
CCCc1nc2sc3c(SCC(=O)NCc4ccco4)ncnc3c2c2c1CCC2	-13%	?	3.8	-4	4%	?	50µM*
COc1ccc(N2CCOCC2)c(NC(=O)c2cccnc2)c1	1.9%	2	/	-18	1%	33%	-3%
CC(C)N1CC(C(=O)O)CC1=O (stereo not drawn)	-1.2%	5	1.5	6	4%	10%	2%
CSCC[C@H](NC(=O)c1cccc(S(=O)(=O)N2CCCCCC2)c1)c1nc2ccccc2[nH]1	/	-19	/	/	-5%	13%	/
O=C(O)c1nccnc1C(=O)Nc1ccc(Cl)cc1Cl	0.6%	/	-0.5	7	4%	-43%[inhibitor]	-9%
CCN(CC)CCn1c(=N)n(CC(O)COc2ccccc2)c2ccccc21 (stereo not drawn)	/	0	3.1	20	10%	-16%[15.4 µM]	-4%
CN(CC(=O)Nc1ccccc1Cl)C(=O)COC(=O)/C=C/c1cccc(C(F)(F)F)c1	4.1%	5	/	12	-5%	-4%	/
Cc1ccc(CN2CCN(Cc3ccccc3)C(CCO)C2)s1 (stereo not drawn)	-0.5%	0	-5.2	-10	7%	?	4%
CCc1nn(CC(=O)N2CCC(C(N)=O)CC2)c(=O)c2cc3occc3n12	-1.5%	/	/	6	0%	-38%[inhibitor]	18%
CCCC(=O)Nc1cccc(Oc2ccc3c(c2)C(=O)NC3=O)c1	1.9%	9	-2.9	24	0%	16%	8%
Cc1ccc(C(=O)COC(=O)CNS(=O)(=O)c2ccccc2)cc1[N+](=O)[O-]	?	0	-2.4	3	-3%[15.4 µM]	17%	13%
COc1ccc(S(=O)(=O)NCCSCc2ccccc2C)cc1Br	-2.8%	-3	5.7	-5	-27%	-35%[inhibitor]	-20%
CC(=O)c1c(C)c2c(n1CCN(C)C)CCCC2	0.7%	-6	0.1	-4	7%	-36%	8%
O=C(CSc1nc2ncccc2[nH]1)Nc1c(F)cc(F)cc1Br	2.0%	/	-2.9	-2	4%	13%	20%
Cc1cc(N)n2nc(-c3ccc(C(C)(C)C)cc3)cc2n1	-23%	2	12	-6	?	-28%	8%
CCN1CCc2c(sc(NC(=O)C3CCCCC3)c2C(=O)OC)C1	-7.6%	9	-2.3	-13	9%	-30%[inhibitor]	-12%
Cc1cc(C)n(CC(=O)NCc2ccccc2)c(=O)c1C#N	?	/	-2.8	7	1%	-10%	16%
COc1ccccc1NC(=O)Cc1nnc(SCC(=O)NC2CCCCC2C)n1C (stereo not drawn)	/	0	1.1	6	3%	37%	19%
CC(CN(C)Cc1nc(Cc2cccc(C(F)(F)F)c2)no1)CN1CCCC1 (stereo not drawn)	0.5%	3	0.5	11	10%	-8%[15.4 µM]	-14%
O=C(O)CCN1C(=O)c2ccc(NC(=O)Cc3ccc(Cl)cc3)cc2C1=O	3.6%	5	7.6	-6	3%	9%	-1%
CCOC(=O)CNC(=O)C1Cc2ccccc2CN1S(=O)(=O)c1cccs1 (stereo not drawn)	/	0	-0.6	4	/	-15%[15.4 µM]	3%

(continued)
SMILES	ClpP mod	CtBP-E1A blk	Menin-MLL FL inh	TRPV1 PAM	gsp antag	gsp agonist	Sfp PPTase inh
Cc1ccc(C)n1-c1ncn[nH]1	0.7%	-2	6.5	8	3%	-3%	15%
Cc1csc2nc(CNS(=O)(=O)c3ccc4c(c3)CCCC4)cn12	-0.9%	-1	-1.2	-19	-10%	13%	1%
Cc1ccccc1OCC(=O)N/N=C/c1ccco1	2.6%	-8	-2.1	0	8%	6%	-1%
CC1CN(c2ccccc2)CCN1Cc1nc(Cc2ccccc2)no1 (stereo not drawn)	/	1	2.6	-16	0%	4%	5%
CC(=O)C[C@H](O)CC(=O)[C@H]1OC(=O)CCCCCc2ccccc21	-1.7%	2	/	/	3%	/	/
Cc1ccc(C(=O)NC(N(C)C)C(Cl)(Cl)Cl)cc1 (stereo not drawn)	-10%	/	-0.8	-16	-4%	-2%	1%
COC(=O)c1sccc1-n1cccc1C(=O)C(=O)Nc1ccc(F)cc1	-0.1%	0	0.4	3	-12%	-1%[15.4 µM]	-15%
CC(=O)n1cc(C2CC(=O)OC3=C2CC(=O)C(C)(C)C3)c2ccccc21 (stereo not drawn)	1.0%	4	/	/	/	-42%[inhibitor]	/
Nc1ccc(C(=O)NC23CC4CC(CC(C4)C2)C3)cc1	-1.1%	1	1.8	-8	10%	-5%[15.4 µM]	0%
Cc1ccc(C(=O)OCc2cn(-c3ccccc3)nn2)cc1	/	9	6.2	25	2%	13%[15.4 µM]	-22%
CCS(=O)(=O)c1ccc2c(c1)N(S(C)(=O)=O)CC(C(=O)NCCOC)O2 (stereo not drawn)	0.3%	3	3.1	3	0%	26%	21%
O=C(NNC(=O)c1cc2cc3ccccc3nc2s1)c1cccc(Cl)c1	-10%	-1	6.5	0	2%	8%	7%
COc1ccc(NC(=O)NC2(C)CCS(=O)(=O)C2)cc1 (stereo not drawn)	/	4	-3.0	-1	8%	0%[15.4 µM]	22%
Cc1cc(C)c(S(=O)(=O)c2cccc(C)c2C)c(=O)[nH]1	-1.2%	3	-9.0	?	-6%	2%[15.4 µM]	3%
CC(C(=O)NC1CCCC1)N(C(=O)Cn1nnc(-c2ccc(F)cc2)n1)c1ccccc1F (stereo not drawn)	/	-21	-16	1	-22%	4%[15.4 µM]	4%
